VDR inh = blocks the human vitamin D receptor. P11473. VDR-SRC2-3 peptide fluorescence polarization, 2 h. Potency, µM, for inactives: max response, negative = inhibition, actives largely listed as inhibitors. 400,000 compounds, 0.93% hits. AID 504847; active means well fitted inhibition curve with a large enough effect; inconclusive means small, poorly fitted or top-dose-only effect, or another doubt; inactive means no such curve, though single readings can be large or run the other way; further: series mostly up to about 120 µM
Target sequence (P11473 whole entry, looked up): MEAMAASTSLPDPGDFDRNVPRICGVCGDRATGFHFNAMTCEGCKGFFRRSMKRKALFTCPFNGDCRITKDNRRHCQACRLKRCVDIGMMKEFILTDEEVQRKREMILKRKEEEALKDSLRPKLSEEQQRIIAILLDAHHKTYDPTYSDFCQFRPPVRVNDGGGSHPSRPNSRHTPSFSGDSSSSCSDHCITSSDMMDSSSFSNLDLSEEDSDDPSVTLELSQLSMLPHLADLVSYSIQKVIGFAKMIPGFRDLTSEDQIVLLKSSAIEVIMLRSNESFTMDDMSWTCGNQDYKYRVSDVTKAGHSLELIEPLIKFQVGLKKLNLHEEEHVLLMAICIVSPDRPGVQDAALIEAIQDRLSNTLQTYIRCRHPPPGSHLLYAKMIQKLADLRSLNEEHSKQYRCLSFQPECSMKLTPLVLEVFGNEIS
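Fluorescence polarization assay measuring small-molecule disruption of VDR binding to the coregulator peptide SRC2-3. Compounds were pin-transferred (23 nl) into the reagent mix and incubated 2 h at room temperature before reading.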
An asterisk follows results filed as active; ? = inconclusive; & = joins results of further samples; [ ] = remark or other dose. On the % scale 0 is the no-effect control and ±100 the full control effect; potency means the concentration at half of the fitted maximal effect. Only part of the results is shown, so the mix of outcomes need not match the whole.

VDR inh,molecule
-4%,CSc1ccc(C(=O)C2CCCN(Cc3ccc(N4CCNC4=O)cc3)C2)cc1 (configuration not stated)
4%,COc1cccc(N(CC(=O)NC2CCCC2)C(=O)CCC(=O)Nc2cc(C)on2)c1
12%,Cc1cncn1CCc1nc2c3ccccc3nc(SCC(=O)Nc3ccccc3F)n2n1
-3%,NS(=O)(=O)c1cccc(NC(=O)c2ccccc2NS(=O)(=O)c2ccc(F)cc2)c1
-2%,Cc1ccc(S(=O)(=O)N2CCCCC2)cc1NC(=O)CSc1nnc(C2CC2)n1N
0%,Cc1ccc(-c2csc(NCCc3nc4cc(Cl)c(Cl)cc4n3CCCO)n2)cc1
8%,COCC(C)NC(=O)COCc1cc(-c2ccc3c(c2)OCO3)on1 (configuration not stated)
-12%,CC(C)Oc1nc(-c2ccc(Cl)cc2)nc2ccccc12
-2%,Cc1ccc(NC(=O)C[n+]2ccccc2)cc1C
6%,O=C(c1cc(-c2ccc(Cl)c(Cl)c2)on1)N1CCCCC1

Next records follow.
VDR inh,molecule
7%,Cc1ccc(CS(=O)(=O)Cc2ccc(C(=O)NCc3ccccn3)o2)cc1
3%&11%,Cc1ccc2nc(N(CCCN(C)C)C(=O)c3ccco3)sc2c1
6%,CCOc1ccc(C(=O)N2CCN(Cc3cc(=O)n4nc(-c5cccc(OC)c5)sc4n3)CC2)cc1
-32%,CCOC(=O)c1cc(/C(C)=N/OC(=O)c2ccc(C(C)(C)C)cc2)on1
-10%,CCCCn1c(N)c(N(CCC(C)C)C(=O)c2ccc(N3CCCC3=O)cc2)c(=O)[nH]c1=O
5%,COc1ccccc1CNc1cc(CSc2ccc(Cl)cc2)nc(C)n1
12%,O=C(O)c1ccc(S(=O)(=O)c2ccc3c(c2)C(=O)N(NC(=O)c2ccccc2)C3=O)cc1
1%,COc1cc(/C=N/NC(=O)Cc2cccs2)c([N+](=O)[O-])cc1OC
10%,CCOCCCn1c(=S)[nH]c2cc(C(=O)NCCCN(CC)CC)ccc2c1=O
4%,NC(=O)C1CCN(C2CC(=O)N(Cc3cccs3)C2=O)CC1 (configuration not stated)

Additional compounds
VDR inh,molecule
-5%,Cn1c(=O)n(CC(=O)N2CCN(c3nnc(-c4ccccc4)c4ccccc34)CC2)c2ccccc21
3%,CCn1c(=O)c(C(=O)NCc2ccc3c(c2)OCO3)c(O)c2ccccc21
-3%,CN1CCN(CCCNC(=O)C2CC(=O)N(C3CCCCC3)C2)CC1 (configuration not stated)
-19%,COc1ccccc1C(=O)N1CCN(C(=O)Cc2ccccc2)CC1
-1%,Cc1nnc(SCc2cccc(Cl)c2)n(N)c1=O
17%,COC(=O)c1ccc(NC(=O)c2cc(-c3ccncc3)nc3ccccc23)cc1
61%[activator],Cc1ccccc1C(=O)Nc1sc2c(c1C(=O)N1CCC(C)CC1)CCC(C)C2 (configuration not stated)
9%,O=C(O)CCCNc1cc(N2CCN(C(=O)c3ccco3)CC2)c2noc3c2c1C(=O)c1ccccc1-3
-4%,CN1/C(=C\C=N\O)C(C)(C)c2ccccc21
5%,O=C(c1[nH]ncc1-c1ccc(Cl)cc1)C1CO1 (configuration not stated)

The list continues.
VDR inh,molecule
5%,Cc1ccccc1Cn1cc(NS(=O)(=O)c2cn(C)nc2C)cn1
-6%,COC(=O)n1c(SC)nc2ccccc21
5%,O=C(CSc1n[nH]c(-c2ccccc2)n1)c1ccccc1
10%,N#Cc1nc(/C=C/c2ccc(F)cc2)oc1N1CCN(c2ccccc2)CC1
-10%,CSCCC(NC(=O)COc1ccccc1)C(=O)NCCOc1ccccc1 (configuration not stated)
9%,CCOc1ccc(Nc2ncnc3c2nnn3Cc2ccccc2)cc1
29%,OCCN=C1CCCc2c1[nH]c1ccc(Cl)cc21
4%,CNc1nc(N/N=C/c2cc3c(cc2[N+](=O)[O-])OCO3)nc(Nc2ccccc2)n1
-23%,Cc1ccc(NC(=O)N2CCCCC2)cc1[N+](=O)[O-]
?,COC(=O)c1ccccc1-c1ccc(C(c2c(C)[nH][nH]c2=O)c2c(C)[nH][nH]c2=O)o1

(list continues)
VDR inh,molecule
9%,Cn1c(C(=O)NCCc2ccccc2)cc2sc(Cl)cc21
0%,Cc1cc(O)c(-c2n[nH]c3c2C(c2cccc(O)c2)N(Cc2cccnc2)C3=O)cc1Cl (configuration not stated)
0%,O=C1CCCCC1S(=O)(=O)c1ccccc1 (configuration not stated)
5%,COc1ccc(NC(=O)c2c(NCc3cccs3)sc3c2CCCC3)c(OC)c1
-8%,CC(C)N(CCNC(=O)c1ccc(NC2=NC3CS(=O)(=O)CC3S2)cc1)Cc1ccco1 (configuration not stated)
-14%,O=C(CCc1ccccc1)Nc1ccc(N2CCOCC2)cc1
2%,O=C(c1cc2ccc3cccnc3c2[nH]1)N1CCN(c2cccc(C(F)(F)F)c2)CC1
1%,O=c1c2ccccc2n(Cc2ccc(F)cc2)c(=O)n1C1CCCC1
10%,Cc1ccccc1NC(=O)c1ccno1
-6%,O=c1cc(-c2ccc(Cl)cc2)oc(=O)[nH]1

The list continues.
VDR inh,molecule
-17%,CC(C)CCN1CCN(Cc2ccc(N3CCNC3=O)cc2)CC1CCO (configuration not stated)
-15%&13%,CCSc1ccc2c(c1)N(CCCN1CCN(C)CC1)c1ccccc1S2
?,CCCCCCCCSc1nnc2[nH]c(=O)cc(N)n12
-19%,COC(=O)C(C)n1cnc2c(nnn2-c2ccccc2)c1=O (configuration not stated)
-3%,CN(c1ccccc1)S(=O)(=O)c1ccc(NC(=O)c2ccc(F)cc2)cc1
-5%,COc1ccc(-c2oc3ccccc3c2C(=O)OCc2ccccc2OC)cc1
21%,CCOc1ccc(NC(=O)Cn2nc(C(N)=O)c3ccccc3c2=O)cc1S(=O)(=O)N1CCCC1
1%,CCn1c(SCC(=O)OCC(=O)N2c3ccccc3NC(=O)C2(C)C)nnc1-c1ccco1
-18%,N#Cc1ccccc1NC(=O)CSc1nnc(-c2ccc(F)cc2)n1-c1ccccc1
14%,Cc1cc(C(=O)NNC(=S)NC(=O)/C=C/c2ccccc2Cl)n[nH]1

An excerpt from above in order of formula weight, smallest number first.
VDR inh,molecule
?,CCCCCCCCSc1nnc2[nH]c(=O)cc(N)n12
-19%,COC(=O)C(C)n1cnc2c(nnn2-c2ccccc2)c1=O (configuration not stated)
14%,Cc1cc(C(=O)NNC(=S)NC(=O)/C=C/c2ccccc2Cl)n[nH]1
-3%,CN(c1ccccc1)S(=O)(=O)c1ccc(NC(=O)c2ccc(F)cc2)cc1
1%,CCn1c(SCC(=O)OCC(=O)N2c3ccccc3NC(=O)C2(C)C)nnc1-c1ccco1
21%,CCOc1ccc(NC(=O)Cn2nc(C(N)=O)c3ccccc3c2=O)cc1S(=O)(=O)N1CCCC1

The list goes on.
VDR inh,molecule
-12%,COc1cc(OC)cc(C(=O)NC(=S)Nc2nnn(C)n2)c1
3%,Cc1c(S(=O)(=O)N2CCc3ccccc3C2)c(=O)n(C)c(=O)n1C
13%,Cc1ccc(OCc2cc(C(=O)N(C)CCc3ccccc3)no2)cc1C
-7%&3%,COc1ccc2[nH]c3c(NCc4ccco4)ncnc3c2c1
10%,CCOC(=O)CS(=O)(=O)c1ccc(C(F)(F)F)cn1
-1%,O=c1[nH]c2cc3c(cc2cc1C(c1nnnn1C1CCCC1)N1CCCc2ccccc21)OCCO3 (configuration not stated)
-19%,CCN1CCN(S(=O)(=O)c2ccc(Cl)c(C(=O)N(C)Cc3ccc(F)cc3)c2)CC1
-5%,Cc1noc(C)c1CSCC(=O)N(C)CC(=O)Nc1ccc(Cl)cc1
0%,CCc1ccc(NC(=O)CSc2ccccn2)cc1
-1%,CCOC(=O)CSC1=C(C#N)C(C)C2=C(CCCC2=O)N1 (configuration not stated)

Carrying on:
VDR inh,molecule
-6%,CC(C)(C)NS(=O)(=O)c1ccc(CCC(=O)N2CCOCC2)cc1
15%,CCc1nnc(NC(=O)c2ccc3c(=O)n4c(nc3c2)CCCCC4)s1
-6%,COc1ccc2c(c1OC)C(=O)N(c1cccc(/C=C/C(=O)O)c1)C2
4%,O=C(COC(=O)CC1c2ccccc2CCN1S(=O)(=O)c1ccc(F)cc1)Nc1ccccc1 (configuration not stated)
4%,C/C(=N\NC(=O)c1cc(C(C)C)[nH]n1)c1ccco1
-5%,Cc1ccccc1-c1nc(S(=O)(=O)c2ccccc2)c(N2CCCC2)o1
-3%,O/N=C/c1cn(-c2ccccc2)nc1-c1ccc2c(c1)OCCO2
-7%,CCOC(=O)c1c(C)[nH]c(C(=O)COC(=O)CN2C(=O)C3CCCCC3C2=O)c1C (configuration not stated)
1%,CCCCC(=O)NCCc1ccc(OC)cc1
-24%,COc1cc(C#N)ccc1OCC(=O)N1CCc2ccccc2C1

3 compounds out of the list above, sorted by their value in VDR inh, highest first:
VDR inh,molecule
-3%,O/N=C/c1cn(-c2ccccc2)nc1-c1ccc2c(c1)OCCO2
-5%,Cc1ccccc1-c1nc(S(=O)(=O)c2ccccc2)c(N2CCCC2)o1
-6%,COc1ccc2c(c1OC)C(=O)N(c1cccc(/C=C/C(=O)O)c1)C2

Back to the main list, repeating the three entries before the break.
VDR inh,molecule
-7%,CCOC(=O)c1c(C)[nH]c(C(=O)COC(=O)CN2C(=O)C3CCCCC3C2=O)c1C (configuration not stated)
1%,CCCCC(=O)NCCc1ccc(OC)cc1
-24%,COc1cc(C#N)ccc1OCC(=O)N1CCc2ccccc2C1
-2%,NCC(O)C1CCCCCCC1 (configuration not stated)
-11%,Cc1nn(C)c(C)c1S(=O)(=O)N1CCC(C(=O)NCCC2=CCCCC2)CC1
-4%,COc1ccc(N2C(=O)CS/C2=N\C(=S)Nc2ccccc2)cc1
?,CCOc1ccc(-c2csc(N)c2C(=O)OC)cc1
-11%,COc1ccc(-c2nn(-c3ccccc3)cc2/C=N/n2cnnc2)cc1OC
-10%,COc1ccc(CNC(=O)C2CCN(S(=O)(=O)c3ccc4c(c3)CC(C)N4C(=O)C3CC3)CC2)cc1 (configuration not stated)
10%,COc1cc(SC)ccc1C(=O)Nc1cccc(C)n1
-8%,COc1cc(/C=N/NC(=O)CCc2n[nH]c(=O)[nH]c2=O)ccc1O
11%,Cc1cc(F)ccc1NC(=O)CN(C)S(=O)(=O)c1ccc(C(=O)N2CCOCC2)s1
-4%,CC(=O)Nc1ccc(OCC(=O)N2CCc3ccccc3C2)cc1

(next part)
VDR inh,molecule
-13%,CCOC(=O)[C@@H]1CSCCS(=O)(=O)N1
9%,COc1ccccc1CNC(=O)CCCCn1c(=O)c2ccccc2n(Cc2c(C)cc(C)cc2C)c1=O
-1%,CC(C)(C)n1cnnc1Sc1ncccc1[N+](=O)[O-]
-5%,COc1ccc2c(c1)[nH]c1c(=O)n(CCN(C)C)cnc12
5%,COCCn1c(-c2ccc(-c3ccccc3Cl)o2)nc2c1c(=O)[nH]c(=O)n2CC(C)C
7%,Cc1ccc(-c2cn3cccnc3n2)cc1NC(=O)Nc1ccc(F)cc1
12%,COc1cccc(NC(=O)CSCc2cc(=O)c3ccc(C)c(C)c3[nH]2)c1
24%,COc1ccc(C2=C(Nc3ccc(F)cc3)c3ccccc3C2=O)cc1
7%,O=S(=O)(NC1CC1)c1ccc(S(=O)(=O)N2CCCC3(CCCCC3)C2)cc1
-5%,CS(=O)(=O)N(CC(=O)NCc1ccc2c(c1)OCO2)C1CCCCC1

Remaining list, next part
VDR inh,molecule
-12%,Cc1cc(C)nc(SCc2ccc(C(=O)NN=C3CCCC3)cc2)n1
14%,CCCOc1ccc(C2C(=O)N(C3CCCCC3)CC(=O)N2CCC2=CCCCC2)cc1OC (configuration not stated)
-22%,Cc1ccc(OCCn2c(CNc3ccccc3C)nc3ccccc32)cc1
-9%,Cc1cc(C(=O)NCC(=O)O)c(C)o1
3%,CC(C)CCNC(=O)C(=O)Nc1cc2c3c(c1)CC(=O)N3CCC2
6%,COc1cccc(CN(C)C(=O)c2cc(S(=O)(=O)NCc3ccccc3)ccc2C)c1OC
-8%,O=C(Cc1ccc(NC(=O)N2CCCCc3ccccc32)cc1)NCc1ccccc1
0%,Cn1ncc2c(NCc3ccccc3)ncnc21
-11%,CCc1ccc(C2NC(=S)NC3=C2C(=O)CC(C)(C)C3)cc1 (configuration not stated)
-19%,CCCCC(=O)Nc1ccc2oc(-c3ccncc3)nc2c1

(further entries)
VDR inh,molecule
-18%,CC(C)c1ccc(NC(=O)C(c2ccccc2)N(C)C(=O)CCc2c[nH]c3ccccc23)cc1 (configuration not stated)
-6%,CC[C@H](C)[C@H](NC(=O)[C@H](CCC(=O)O)NC(=O)CNC(=O)[C@@H](NC(=O)[C@H](CCC(=O)O)NC(=O)[C@H](CCC(=O)O)NC(=O)[C@H](CC(C)C)NC(=O)CNC(=O)[C@@H]1CCCN1C(=O)[C@H](CCC(=O)O)NC(=O)[C@@H](N)[C@@H](C)O)C(C)C)C(=O)N[C@@H](CCC(=O)O)C(=O)N[C@@H](CCC(N)=O)C(=O)N[C@@H](CCCCN)C(=O)N[C@@H](CCC(N)=O)C(=O)N[C@@H](CC(C)C)C(=O)N[C@@H](CCC(N)=O)C(=O)O
12%,C=CCn1c(SCC(=O)c2cc(C)n(CCOC)c2C)nc2sc(C)c(C)c2c1=O
-2%,Cc1ccccc1CNC(=O)C1CCC(=O)N(Cc2cccc(F)c2)C1 (configuration not stated)
1%,CC(C(=O)N1CCN(c2ccc([N+](=O)[O-])cc2)CC1)N1C(=O)C2CC=CCC2C1=O (configuration not stated)
-4%,CCOC(=O)C1C(=O)NC(N2CCN(Cc3ccccc3)CC2)=NC1c1ccccc1 (configuration not stated)
5%,Cc1ccc(CNC(=O)Cn2ccn(-c3ccc(F)c(F)c3)c(=O)c2=O)cc1
-6%,CCc1nnc(NC(=O)CSc2nnc(CNc3ccc(OC)cc3)n2CC)s1
